# Vaccinia mCherry: inhibitors of vaccinia virus infection (mCherry reporter signal); Potency, µM (highest dose often 36.5 µM), for the others: top-dose activity change, negative = inhibition, hits mostly inhibitors; actives 0.63% (n = 310,000); Vaccinia virus mCherry reporter infection, fluorescence; about a quarter of the inactives have no number; active = well fitted inhibition curve with a large enough effect; inconclusive = small, poorly fitted or top-dose-only effect; inactive = no such curve, though single readings can be large or run the other way; tested in A549 cells; further: nearly all actives have a fitted effect of over 35% in size; inactives centre near -10
# VACV Venus inh: vaccinia inhibition (Venus reporter); Vaccinia virus Venus reporter expression, fluorescence; Potency, µM (top dose mostly 36.5 µM), for the others: top-dose activity change, negative = inhibition, most hits filed as inhibitors; actives 0.46% (n = 330,000); AID 720580; active means well fitted inhibition curve with a large enough effect; inconclusive means small, poorly fitted or top-dose-only effect; inactive means no such curve, though single readings can be large or run the other way; tested in A549 cells; further: nearly all actives have a fitted effect of over 30% in size; inactives centre near -10
# Starred values were filed as active, the others as inactive; i = inactive; ? = inconclusive; . = no result given; & = joins results of further samples; [ ] = another dose, or the depositor's remark. On the % scale 0 is the no-effect control and ±100 the full control effect; potency means the concentration at half of the fitted maximal effect.
SMILES | VACV Venus inh | Vaccinia mCherry
O=C(OCc1nc2ccccc2[n+]([O-])c1C(=O)c1ccccc1)c1ccco1 | -5% | -13%
Cc1ccc(NC(=O)C2CCN(S(=O)(=O)c3c(C)n[nH]c3C)CC2)nc1 | -29% | .
COc1ccc(-c2c3c(=O)n(C)c(=O)n(C)c3cn2-c2cccc(N)c2)cc1 | -24% | -29%
CCOc1ccc(NC(=O)c2ccccc2OC)cc1 | 1% | -13%
COc1ccc(-c2nn(CC(=O)Nc3ccccc3F)c3c2cnc2ccc(F)cc23)cc1 | 3% | -9%
CC(C)[C@H](NS(=O)(=O)c1ccccc1)C(=O)OCC(=O)NC(=O)NC1CCCCC1 | -1% | -2%
O=C(CSc1ccccn1)N1CCOCC1 | -2% | -9%
Clc1ccc(-n2nnc(-c3ncc[nH]3)n2)cc1Cl | -3% | i
COc1ccc(C(=O)NCc2ccco2)cc1S(=O)(=O)N1CCOCC1 | -12% | i
CCN(CC(=O)N1CCCC1)S(=O)(=O)c1cc(C)ccc1OC | -9% | i
CCc1cccc(NC(=O)C2CCN(S(=O)(=O)c3ccc(Br)s3)CC2)c1 | ? | ?
Cc1cc(O)ccc1N1C(=O)c2cccc3cc([N+](=O)[O-])cc(c23)C1=O | 6% | -18%
CCc1ccccc1NC(=O)C(=O)NCC(c1cccnc1)N1CCN(c2ccccc2F)CC1 (stereo not given) | -18% | -9%
COC(=O)CCCC1=CC2=CC(=O)C(C)(OC(=O)c3cccs3)C(=O)C2=CN1C1CCCCC1 (stereo not given) | -15% | -10%
O=C(CN1CCOCC1)Nc1ccc(NC(=O)c2ccccc2F)cc1 | -3% | -15%
Cc1ccsc1/C=N/NC(=O)CSCc1ccc(Cl)cc1 | -26% | .
O=C(CSCc1ccccc1Br)NNC(=S)NCc1ccco1 | -21% | -20%
COc1cc2ccccc2cc1C(=O)NC(=S)Nc1cc(C(=O)O)ccc1C | -4% | i
O=C(CSc1nnc(-c2ccncc2)o1)Nc1ccccc1C(F)(F)F | -15% | -1%
COCCN1C(=O)c2ccccc2C(C(=O)NCCCN2CCCC2=O)C1c1c[nH]c2ccccc12 (stereo not given) | -2% | .
Cc1[nH]nc(-c2ccc(OCc3cnn(-c4ccccc4)c3)cc2O)c1Oc1ccc(Cl)cc1 | ? | ?
Cc1cc(Cl)c(S(=O)(=O)N2CC(C)OC(C)C2)cc1OCC(N)=O (stereo not given) | -15% | -17%
COc1cccc(-n2cc(C(=O)NCCc3ccc(C)cc3)c3ccccc3c2=O)c1 | -6% | -8%
O=C(O)CCCC(=O)Nc1ccccc1C(=O)N1CCCC1 | -3% | .
CCOc1ccccc1N(CC(=O)NC1CCCCC1)C(=O)CCC(=O)Nc1nccs1 | -6% | -14%
Cc1cc(C)n(C(=O)CCCC(=O)n2nc(C)cc2C)n1 | -17% | .
Cc1cnc(C)c(-c2ccc(F)c3c2OC(CNC(=O)Cc2c(C)[nH]c4ccccc24)C3)n1 (stereo not given) | -2% | -13%
O=S(=O)(c1ccc(Cl)cc1)N1CCN(c2ncccn2)CC1 | -9% | -8%
CCNC(=O)C1CCCN(Cc2cc(C(F)(F)F)ccc2Cl)CC1 (stereo not given) | 8% | -28%
COc1ccc(/C=C/C(=O)Nc2ccc(C)cc2)cc1 | ? | -11%
Cc1ccc(-c2csc(N(CCCN3CCOCC3)C(=O)c3ccco3)n2)cc1 | -14% | -23%
COC(=O)CSc1nc(NCC(C)C)nc(N2CCOCC2)n1 | -9% | -2%
CC(=O)Nc1cccc(-c2cn3ccccc3n2)c1 | -2% | i
Cc1nn(-c2ccccc2)c(C)c1NC(=O)COC(=O)Cc1ccccc1 | -5% | -14%
CC(=O)N1CCN(CC(C)(C)NS(=O)(=O)c2ccc(C)cc2)CC1 | -19% | -3%
COc1ccc(OC)c(NC(=O)Nc2nc(C(N)CCc3ccccc3)cs2)c1 (stereo not given) | ? | ?
COc1ccc(N2CCN(C(=O)c3ccc(CNS(=O)(=O)c4ccc(C)cc4)cc3)CC2)cc1 | -26% | -23%
Cc1c(C(=O)NCC2(N3CCOCC3)CCCCC2)cnn1-c1nccc(-c2ccccc2F)n1 | -3% | -19%
COc1ccc(-c2n[nH]c(=S)n2-c2ccccc2C)cc1OC | -19% | -2%
Cc1ccc(C)c(OCCC(=O)OCC(=O)Nc2cccnc2Cl)c1 | -4% | -13%
CCOc1ccc(C(=O)c2cn(CC(=O)Nc3cc(OC)ccc3OC)c3cc(OC)c(OC)cc3c2=O)cc1 | -11% | -7%
C[C@@H]1CCC(=O)N(CC[C@H](Oc2ccccc2)c2ccccc2)CC1 | -8%&-13% | -26%&-4%
CCOc1ccc(-n2nc3ccc(NC(=O)c4ccc(-c5cccc(Cl)c5)o4)cc3n2)cc1 | 0% | -4%
COc1cc(NC(=O)CCc2c(C)n(C)c3cc(-c4ccccc4C)nn3c2=O)cc(OC)c1OC | 1% | -12%
O=S(=O)(c1ccccc1)c1nc(-c2cccs2)oc1N1CCCCC1 | -22% | -13%
O=C(O)/C=C/C(=O)N1N=C(c2ccco2)CC1c1ccco1 (stereo not given) | -1% | -6%
O=C(Nc1cccc(-c2cn3ccccc3n2)c1)c1cnccn1 | -13% | i
CCn1ccnc1CN1CCCC(CO)(Cc2cccc(OC)c2)C1 (stereo not given) | -5% | -11%
NC(=O)OCC(O)COc1ccc(Cl)cc1 (stereo not given) | -11% | i
Cc1cccc2sc(N(CCCN(C)C)C(=O)c3ccc(S(=O)(=O)N4CCc5ccccc5C4)cc3)nc12 | -19% | ?
COC(=O)CSc1nc2c(cnn2-c2ccc(F)cc2)c(=O)[nH]1 | -9% | 5%
Cn1c(=O)oc2cc(S(=O)(=O)NCCc3ccccc3)ccc21 | -19% | .
CCn1c(SCC(=O)Nc2nnc(C)s2)nnc1C(C)NC(=O)c1ccccc1 (stereo not given) | -19% | -6%
COc1ccc(-c2nnc(NC(=O)c3ccc(S(=O)(=O)N4CCCc5ccccc54)cc3)o2)cc1 | -16% | -16%
O=C(Nn1cnc2ccccc2c1=O)c1ccccc1 | -5% | i
CC(=O)Nc1ccc(OCC(O)CNC2CCCC2)cc1 (stereo not given) | -8% | -14%
CSCc1cc(N2CCCC2)nc(-c2ccccc2)n1 | -7% | -11%
O=C(Nc1ccc(NC(=O)C2CC2)nc1)c1cccnc1 | -4% | -15%
COc1ccc(/C=C2\SC(=S)N(CC(=O)Nc3nnc(C)s3)C2=O)cc1 | -5% | i
COc1cccc(C2CC(c3cccs3)=NN2C(=O)CSc2nc3c(cnn3-c3ccc(F)cc3)c(=O)[nH]2)c1OC (stereo not given) | -12% | -4%

# Another view of part of the listing above:
# Second line of a record: VACV Venus inh	Vaccinia mCherry
- COc1ccc(OC)c(NC(=O)Nc2nc(C(N)CCc3ccccc3)cs2)c1 (stereo not given)
→ ?	?
- COc1ccc(N2CCN(C(=O)c3ccc(CNS(=O)(=O)c4ccc(C)cc4)cc3)CC2)cc1
→ -26%	-23%
- Cc1c(C(=O)NCC2(N3CCOCC3)CCCCC2)cnn1-c1nccc(-c2ccccc2F)n1
→ -3%	-19%
- COc1ccc(-c2n[nH]c(=S)n2-c2ccccc2C)cc1OC
→ -19%	-2%
- Cc1ccc(C)c(OCCC(=O)OCC(=O)Nc2cccnc2Cl)c1
→ -4%	-13%

# The list continues.
SMILES | VACV Venus inh | Vaccinia mCherry
COc1ccc(-n2c(-c3ccc(F)cc3)cnc2SCC(=O)NCc2ccco2)cc1 | -12% | -18%
O=C(COc1ccc(F)cc1)Nc1ccc(S(=O)(=O)N(Cc2ccccc2)c2ccccc2)cc1 | -10% | -14%
COC(=O)c1c(NC(=S)Nc2ccc(C(=O)N3CCOCC3)cc2)sc2c1CCC2 | -15% | -9%
COc1ccc(CNC(=O)C2CCCN2C(=O)Nc2cccc(Cl)c2)cc1 (stereo not given) | 2% | -4%
COc1ccccc1N1CCN(C(=O)c2cc(N3C(=O)C4C5CCC(C5)C4C3=O)ccc2Cl)CC1 (stereo not given) | -18% | -19%
CCn1c(-c2ccc(C)cc2)nn(CC(=O)NCCc2ccccc2)c1=S | -25% | -14%
COc1ccccc1CNS(=O)(=O)c1ccc(-c2cnc(C3CC3)o2)cc1 | -20% | -19%
O=C(NCC1CCCN1S(=O)(=O)c1ccccc1)C(=O)NC1CC1 (stereo not given) | -11% | -15%
Cc1nc2ccccc2nc1N1CCCC1 | -3% | 87%[activator]
COc1ccc(-c2cc3cc(OC)c(OC)cc3c(C)n2)cc1 | -2% | 14%
CC(=O)Nc1nc(CCN2C(=O)c3ccccc3C2=O)cs1 | 5% | -4%
Cc1ccc(/C=N/NC(=O)NC23CC4CC(CC(C4)C2)C3)o1 | ? | -9%
O=C(COc1ccccc1)N1CCN(C(=O)Cc2ccccc2)CC1 | 5% | .
COC(=O)[C@@]12CCCCN1[C@H](c1ccc(-c3ccccc3)cc1)[C@@H]1C(=O)N(C)C(=O)[C@@H]12 | ? | -22%
COC(=O)c1ccc(S(=O)(=O)NNC(=O)COc2ccc(C)cc2)cc1 | -10% | -11%
COc1cc(CN(CCN(C)C)Cc2ccccc2)ccc1OCc1ccccc1 | -25% | -3%
O=C(c1ccccc1)c1coc(-c2ccccc2)c1 | -3% | i
Cc1ccc(C(=O)NCCNC(=O)c2ccco2)cn1 | -5% | i
Brc1ccc(-c2csc(N3CCc4ccccc4C3)n2)cc1 | 1% | 0%
CCOc1c(Cl)cc(C(=O)N(Cc2ccc(N(C)C)cc2)Cc2ccco2)cc1Cl | -14% | -7%
CCOC(=O)c1cnc2ccc(C)cc2c1Nc1ccc(N2CCOCC2)cc1 | -24% | ?
CCOc1ccccc1N(CC(=O)NC1CCCCC1)C(=O)CCCC(=O)Nc1ccccn1 | -20% | .
CCn1c(C(=O)NCc2cc(Br)ccc2OC)cc2oc3ccccc3c21 | -1% | 7%
CNS(=O)(=O)c1cn(CC(=O)NCc2ccc(N(C)C)cc2)cc1S(=O)(=O)NC | -3% | i
Cc1nc2ccc(-c3ccccc3)cc2o1 | -21% | .
C/C(=N\NS(=O)(=O)c1ccccc1)c1ccc2c(c1)OCO2 | -9% | i
CCCCN(C(=O)c1cccc(C)c1)c1c(N)n(CCC)c(=O)[nH]c1=O | 0% | -1%
COc1ccc(OCCC(=O)c2ccc(OC)cc2)cc1 | -6%[7.34 µM] | i[7.34 µM]
CN(C)CCN(C(=O)c1ccc2c(c1)OCCO2)c1nc2cc3c(cc2s1)OCO3 | -9% | -18%
CCn1c(SCC(=O)N2CCOCC2)nc2sc3c(c2c1=O)CCCC3 | 13% | .
O=C(NCCc1ccccn1)c1c(-c2ccccc2)sc2ccccc12 | -25% | -2%
COc1ccc(NC(=O)c2cc(-c3ccco3)nc3ccccc23)cc1 | -29% | -26%
Cc1ccc(N2CCN(CC3CC=CCC3)CC2)cc1 (stereo not given) | 0% | -14%
CSc1cccc(NC(=O)Nc2nc3c(C)cccc3s2)c1 | ? | -5%
COc1ccc(C(NC(=O)c2cc(OC)ccc2OC)c2ccccc2)cc1 (stereo not given) | -22% | -9%
COc1cc(/C=C2/C(=O)NN(c3ccc(Cl)cc3)C2=O)cc(Br)c1O | -2% | -15%
COc1ccc(NC(=S)NCc2ccc(S(N)(=O)=O)cc2)c(OC)c1 | -15% | i
COc1ccc(CNc2cc(NCCCO)c([N+](=O)[O-])c3nonc23)cc1 | ? | -10%
CC(C)CC#Cc1ccc2c(c1)O[C@H](CN(C)C(=O)Nc1ccccc1)[C@@H](C)CN([C@H](C)CO)S2(=O)=O | -11% | i
Cc1ccc(N2CCN(C(=O)c3cnn(-c4ccc(C)c(C)c4)c3C3CCNCC3)CC2)c(C)c1 | ? | ?
CCOc1ccccc1C(=O)N(Cc1ccco1)Cc1ccccc1F | -9% | -11%
CNC(=O)c1ccc(Nc2nnc(C)c3ccccc23)cc1 | -14% | .
CCc1ccc(NC(=O)N2CCC(N3CCN(Cc4ccc(C)cc4)C(=O)C3=O)CC2)cc1 | -14% | -14%
O=C(Nc1ccccc1-c1ccccc1)c1cc(C(F)(F)F)cc(C(F)(F)F)c1 | -6% | i
Cc1c(C)n2c(SCC(=O)Nc3cccc4ccccc34)nnc2[nH]c1=O | 0% | -23%
O=C(Cn1nc2c(cc1=O)CCCC2)NCc1ccccc1 | -4% | -14%
CCCN(CCC)C(=O)C1CCN(c2cc(C)nc3c(-c4ccc(Cl)cc4)c(C)nn23)CC1 | ? | ?
COc1ccc(NS(=O)(=O)c2cc(NC(=O)c3cnccn3)ccc2N2CCCC2)cc1 | ? | -27%
COc1cccc(OC)c1C(=O)Nc1cccc(-c2ccc(N3CCOCC3)nn2)c1 | -14% | -9%
CCOC(=O)N1CCN(C(=O)CSCc2ccccc2Cl)CC1 | -8% | i
CCn1cnc2cc(NCc3cccs3)ccc21 | -10% | -24%
CCOC(=O)N1CCN(S(=O)(=O)c2ccc(C(=O)NNc3nc4c(C)cc(C)cc4s3)cc2)CC1 | ? | 10µM*
C[C@@H]1CN([C@@H](C)CO)C(=O)c2cc(C#Cc3ccccc3)cnc2O[C@H]1CN(C)C(=O)c1ccccc1F | -21% | -14%
O=c1c2ccccc2n(Cc2cccc(Cl)c2)c(=O)n1Cc1ccccc1 | -8% | -15%
COc1ccc(NC(=O)c2ccco2)cn1 | -10% | -11%
CCOc1ccccc1CNS(=O)(=O)c1cnc(N)nc1 | -7% | -10%

# High-throughput results: PubChem BioAssay, National Center for Advancing Translational Sciences (NCATS)
